Lassa entry inh: inhibitors of Lassa virus binding or cell entry; Lassa virus pseudotype entry inhibition, cell reporter; control for the full effect not named in the record; 300,000 compounds, 1.2% hits; Potency, µM (top dose mostly 37.9 µM), for inactives: at the highest dose activity change, negative = inhibition, actives largely listed as inhibitors; active means well fitted inhibition curve with a large enough effect; inconclusive means small, poorly fitted or top-dose-only effect, or effect the other way; inactive means flat fitted curve, though single readings scatter; tested in HEK293 cells; further: on the % scale 0 is the no-effect control and ±100 the full control effect; nearly all actives have a fitted effect of over 50% in size; luciferase read-out
2A StopGo: FMDV 2A StopGo reporter, luciferase signal | human cells with a luciferase reporter of 2A StopGo recoding; control for the full effect not named in the record | Potency, µM (series often up to 57.9 µM), inactives show top-dose signal change, negative = less light | 410,000 compounds, 1.2% hits; active = well fitted falling curve with a large enough effect; inconclusive = small, poorly fitted or top-dose-only effect; inactive = no such curve, though single readings can be large or run the other way; tested in HEK293T cells; further: on the % scale 0 is the no-effect control and ±100 the full control effect; nearly all actives have a fitted effect of over 45% in size; luciferase light after 4 h
Cruzain noTriton: cruzain (T. cruzi) inhibition without detergent. AID 1476. Potency, µM, for the others: max response, negative = inhibition, usual class: inhibitors. purified cruzain, Z-FR-AMC fluorescence, no detergent. 200,000 compounds, 2.3% hits; active means well fitted curve in the direction sought with a large enough effect; inconclusive means small, poorly fitted or top-dose-only effect, or another doubt; inactive means no such curve, though single readings can be large; an effect the other way counts as inactive or inconclusive;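 further: plate controls were enzyme without inhibitor for no effect and buffer without enzyme for full effect; nearly all actives have a fitted effect of over 40% in size; top concentration of the series not given in the record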
Target sequence (P25779 123-467 limits assumed): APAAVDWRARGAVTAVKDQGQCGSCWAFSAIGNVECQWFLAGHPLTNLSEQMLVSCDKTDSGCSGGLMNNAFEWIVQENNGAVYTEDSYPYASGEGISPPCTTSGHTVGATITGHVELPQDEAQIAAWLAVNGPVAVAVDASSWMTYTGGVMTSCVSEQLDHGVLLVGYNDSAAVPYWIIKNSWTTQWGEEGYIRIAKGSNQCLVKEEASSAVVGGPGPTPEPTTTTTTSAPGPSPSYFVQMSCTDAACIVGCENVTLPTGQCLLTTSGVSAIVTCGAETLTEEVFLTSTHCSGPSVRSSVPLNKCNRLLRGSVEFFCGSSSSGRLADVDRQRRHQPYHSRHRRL
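Purified cruzain at 1.5 nM, pre-incubated 15 min with compound at room temperature in 100 mM sodium acetate pH 5.5, 5 mM DTT, 0.00005% Triton X-100. Reaction started with 2 uM Z-FR-AMC; AMC fluorescence increase over 60 s gives rate.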
Cruzain inh Det: blocks cruzain activity in presence of Triton detergent; P25779; purified cruzain, Z-FR-AMC fluorescence, 0.01% Triton; Potency, µM, without a hit: max response, negative = inhibition, usual class: inhibitors; 200,000 compounds, 0.43% hits; AID 1478; active means well fitted curve in the direction sought with a large enough effect; inconclusive means small, poorly fitted or top-dose-only effect, or another doubt; inactive means no such curve, though single readings can be large; an effect the other way counts as inactive or inconclusive;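 further: plate controls were neutral wells for no effect and buffer without enzyme for full effect; nearly all actives have a fitted effect of over 40% in size; top concentration of the series not given in the record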
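Steps: dispense cruzain (1.5 nM final) in acetate buffer pH 5.5 with DTT and 0.01% Triton X-100; pin-transfer compounds; incubate 15 min RT; add Z-FR-AMC (2 uM final); read fluorescence every 30 s, using the 60 s intensity change.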
NS1 inh: blocks influenza NS1 protein function; S. cerevisiae slowed by influenza A NS1, growth recovery by OD600; Potency, µM (series often up to 46.1 µM), for the others: top-dose activity, positive = more growth; 270,000 compounds, 0.4% hits; AID 2326; further: actives are rising curves; nearly all actives have a fitted effect of over 50% in size
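Recovery from NS1-induced slow growth read by OD600 in budding yeast switched to galactose assay medium (pH 6.0, -URA) at 1:100 dilution. Compound 23 nl per well; the matching strain lacking NS1 serves as control.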
SARS PLpro yeast: blocks SARS-CoV papain-like protease in a yeast assay; S. cerevisiae expressing SARS-CoV PLpro, growth rescue; control for the full effect not named in the record; Potency, µM (top dose mostly 32.9 µM), for inactives: at the highest dose activity, positive = growth rescue; 330,000 compounds, 0.19% hits; further: 0% is about no effect; nearly all actives have a fitted effect of over 55% in size; growth read by luminescence after 48 h
RE007 growth inh: less growth of the S. pombe RE007 Vpr strain; S. pombe RE007 Vpr strain, BacTiter-Glo ATP luminescence, 24 h; control for the full effect not named in the record; Potency, µM (titrated, usually from 92.2 µM), inactives show top-dose activity change, negative = less growth; 360,000 compounds, 0.21% hits; active = well fitted falling curve with a large enough effect; inconclusive = small, poorly fitted or top-dose-only effect; inactive = no such curve, though single readings can be large or run the other way;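 further: on the % scale 0 is the no-effect control and ±100 the full control effect; nearly all actives have a fitted effect of over 50% in size; the assay follows cell death caused by Vpr and the record does not say whether a fall means rescue or toxicity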
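Fission yeast RE007 carrying one integrated HIV-1 vpr copy, seeded at OD 0.01 in PMG+AL medium with 23 nL pinned compound. Grown 24 h at 30 degrees; viability read by BacTiter-Glo luminescence after 5 min.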
MARV entry inh: Marburg virus entry inhibition; AID 540276; 300,000 compounds, 1.8% hits; Marburg virus pseudotyped entry inhibition, cell reporter; control for the full effect not named in the record; about a third of the inactives were read at about 46 µM; Potency, µM (doses to about 37.8 µM), inactives show at the highest dose activity change, negative = inhibition, actives largely listed as inhibitors; active = well fitted inhibition curve with a large enough effect; inconclusive = small, poorly fitted or top-dose-only effect, or effect the other way; inactive = flat fitted curve, though single readings scatter; tested in HEK293 cells; about a fifth of its hits are not listed in these tables; further: on the % scale 0 is the no-effect control and ±100 the full control effect; luciferase read-out
Numbers without * were called inactive; ? = inconclusive; / = no result given; & = joins results of further samples; [ ] = dose if it differs, or a comment. Unless noted, the call rests on the fitted dose curve; in most records, active means well fitted rising curve with a large enough effect; inconclusive means small, poorly fitted or top-dose-only effect; inactive means no such curve, though single readings can be large or run the other way. Potency means the concentration at half of the fitted maximal effect. Hits appear at their usual frequency; any-hit rate near 4.7%.

SMILES | Lassa entry inh | 2A StopGo | Cruzain noTriton | Cruzain inh Det | NS1 inh | SARS PLpro yeast | RE007 growth inh | MARV entry inh
CC12CCC(C(=O)N3CCCCC3)([C@H](Br)C1=O)C2(C)C (stereo partly specified) | 5% | -9% | / | / | -3% | 5% | 6% | -1%[46.1 µM]
COC(=O)c1ccccc1C(=O)c1cccc2ccccc12 | ? | -11% | / | / | -12% | 14% | -19% | ?
COCCNC(=O)c1ccc(CS(=O)(=O)c2ccc(C)cc2)o1 | 3% | -22% | 0% | -1.8% | 3% | ? | -11% | -14%
COc1ccc(Cc2nnc(NC(=O)CSc3ccccc3)s2)cc1OC | -9% | -19% | 1% | -2.2% | 11% | ? | 2% | 34%
CCOc1ccc(N(C(=O)CNC(=O)c2ccco2)C(C(=O)NCC2CCCO2)c2ccccc2)cc1 (stereo unspecified) | / | -2% | / | / | 0% | 3% | 8% | 0%[46.1 µM]
CCCc1nc(-c2cc3ccccc3[nH]c2=O)no1 | 6%[46.1 µM] | 11% | / | / | -6% | 1% | -12% | 3%[46.1 µM]
CN(C)c1ccc(C2C3C(=O)NC(=O)C3ON2c2ccc(Cl)cc2)cc1 (stereo unspecified) | / | 40%[activator] | 1% | -3.9% | -51% | -4% | -3% | /
Cc1ccc(S(=O)(=O)NCc2cccnc2)s1 | 9% | -3% | -11% | -0.4% | 11% | 2% | 22% | -1%[46.1 µM]
O=C(NCCCc1ccccc1)c1cncc(Br)c1 | / | 54%[activator] | / | / | -5% | -4% | 10% | /
Cc1onc(-c2ccccc2)c1C(=O)NC(C)CCc1ccccc1 (stereo unspecified) | 11%[46.1 µM] | -9% | / | / | -12% | 3% | -9% | ?
Cc1ccccc1NC(=O)NCC1CCN(c2ccc(S(=O)(=O)N3CCOCC3)cc2)CC1 | -16% | ? | / | / | -2% | 6% | -11% | -6%
COc1ccc(Cn2c(SCc3ccc(C(=O)NCc4cccs4)cc3)nc3cccnc32)cc1 | / | -15% | ? | -5.9% | / | / | / | ?
COc1ccc(-c2csc(C)n2)cc1OC | 2% | 51%[activator] | 4% | 0.0% | -18% | -3% | -10% | 9%
CCC(c1nnc(SCC(=O)Nc2ccc(C(=O)N(C)C)cc2)n1Cc1ccccc1)N(C)C (stereo unspecified) | 8% | -3% | / | / | -5% | -7% | 4% | 30%
O=C(Nc1ccc(F)cc1)C1CCCN(c2cnccn2)C1 (stereo unspecified) | / | -7% | / | / | -3% | -9% | -2% | /
O=C1Nc2ccc(Br)cc2C1=Nc1ccc(-c2nnc3n2CCCCC3)cc1 | / | / | -8% | 1.5% | -46% | -8% | / | /
Cc1nn(-c2ccccc2)c(N2CCCC2)c1C=O | 1% | -9% | / | / | / | 1% | -22% | -14%
O=C1[C@@H]2Cc3c([nH]c4ccccc34)CN2C(=O)CN1CCCO | / | -13% | / | / | 1% | -2% | 10% | /
CCC(C)NC(=O)c1ccc2nc(CCc3ccccc3)oc2c1 (stereo unspecified) | ? | 12% | -1% | -0.7% | / | / | / | /
CC(C)(C)c1ccc(S(=O)(=O)c2cn(CC(=O)Nc3ccccc3)c3ccccc3c2=O)cc1 | -8%[46.1 µM] | 1% | -4% | -3.7% | / | / | / | -5%[46.1 µM]
COc1ccc(/C=C2\SC(=S)N(CC(=O)OCC(=O)Nc3ccc(C)cc3Cl)C2=O)cc1 | 22%[46.1 µM] | -5% | / | / | 0% | -1% | -8% | 7%[46.1 µM]
COc1cccc(-c2cc(C(=O)NCCc3ccc(C)cc3)[nH]n2)c1 | -23%[46.1 µM] | 2% | 20% | -2.3% | / | / | / | /
O=C(Nc1nnc(-c2ccccc2)o1)c1cc(-c2cccs2)nc2ccccc12 | -26% | 0% | ? | -0.2% | -6% | -24% | 0% | -27%
C=C(C)C(=O)Nc1cccc(C2=NOC3(C2)C[C@@H](C(N)=O)N(C(=O)CC(c2ccccc2)c2ccccc2)C3)c1 (stereo partly specified) | / | 7% | / | / | -2% | 0% | 6% | /
Cc1ccccc1CN1C(=O)c2ccccc2S(=O)c2ccc(C(=O)NCc3ccccc3)cc21 (stereo unspecified) | ? | 0% | ? | 0.9% | / | / | / | /
COCCn1nnnc1C(c1cc(OC)ccc1OC)N1CCc2ccccc2C1 (stereo unspecified) | -11% | -2% | 9% | -1.0% | -10% | -2% | -23% | -7%&-7%
Cc1ccc(S(=O)(=O)NCCc2ccncc2)cc1[N+](=O)[O-] | -22%[46.1 µM] | 83%[activator] | / | / | -8% | 1% | 2% | 7%[46.1 µM]
Cc1ccc(C23CC4CC(CC(C(=O)OCC(=O)NC5CCS(=O)(=O)C5)(C4)C2)C3)cc1 (stereo unspecified) | 1% | -13% | ? | -6.8% | -1% | -6% | -17% | 3%
CCOC(=O)c1ccc(NC(=S)NCc2ccc(S(N)(=O)=O)cc2)cc1 | / | 7% | / | / | 13% | -4% | -2% | /
CCCn1cc(CN2CCC(n3nccc3NC(=O)c3ccc4c(c3)OCO4)CC2)c(C)n1 | / | -3% | / | / | 1% | 3% | -2% | /
Cn1c(=O)c2[nH]c(CSCc3ccccc3)nc2n(C)c1=O | -5% | -8% | -9% | 6.1% | -1% | / | -23% | ?
Cc1c(C)c(C)c(S(=O)(=O)N2CCC3(CC2)OCCO3)c(C)c1C | -5% | -19% | / | / | -8% | -7% | 0% | -12%
O=C(C1=C(O)C(=O)N(CCc2ccccc2)C1c1cccs1)c1ccco1 (stereo unspecified) | 7% | 18% | / | / | / | 8% | 2% | -4%[46.1 µM]
CC(C)n1nnc2c(=O)oc3ccccc3c21 | 11% | -20% | 0% | -4.6% | -33% | 4% | 5% | 8%
Cc1ccnc(SCC(=O)c2ccc(Br)s2)n1 | ? | 0% | / | / | / | -7% | -13% | 8%[46.1 µM]
CCn1c(SCC(=O)c2ccc(NS(=O)(=O)c3ccccc3)cc2)nnc1-c1cccs1 | 1% | -13% | ? | 0.1% | 10% | -3% | -21%[3.69 µM] | -22%
Cn1cc(SCC(=O)Nc2nccs2)c2ccccc21 | / | 40%[activator] | 7% | -7.1% | -16% | -10% | -9% | /
C/C(=N\NC(=S)Nc1ccccc1C)C1Cc2ccccc2C(=O)O1 (stereo unspecified) | -28%[46.1 µM] | -17% | / | / | 0% | 0% | 9% | ?
CCCCCCc1cc2cc(C(=O)Nc3cccc(OC)c3)c(=O)oc2cc1O | ? | ? | ? | -2.2% | 15% | 3% | -12% | ?
CCOC(=O)c1sc(NC(=O)c2cc(-c3ccc(C)cc3)nc3ccccc23)c(C#N)c1C | 5% | ? | 10µM* | -1.1% | -30% | -4% | 13% | 18%
COC(=O)[C@@H]1C[C@@]2(O)[C@H](O)[C@H](O)[C@H](O)C[C@H]2N1Cc1ccc(C(F)(F)F)cc1 | / | -18% | 2% | 4.8% | 3% | 2% | 0% | /
Cc1ccc2oc(=O)c3cnn(CC(=O)N4CCN(c5ccccn5)CC4)c3c2c1 | / | 0% | 2% | -2.4% | -45% | 4% | 0% | 0%
COC(=O)c1cccc(NC(=S)NCCC2=CCCCC2)c1 | ? | -13% | -2% | -2.6% | -2% | 0% | -1% | -24%
COc1ccccc1CNC(=O)CCCn1c(=O)c2ccccc2n(CC(=O)Nc2c(C)cc(C)cc2C)c1=O | -7%[46.1 µM] | -20% | 1% | -4.2% | / | / | / | -8%[46.1 µM]
CCOc1ccc(/C=N/NC(=O)c2ccccc2O)cc1CN1CC2CC(C1)c1cccc(=O)n1C2 (stereo unspecified) | / | -21% | / | / | / | -2% | -16% | -5%
CN(C)/C=C/C=C1C(=O)CCCC1=O | 16% | 12% | 5% | -5.7% | -1% | -4% | 21% | 14%
CCOc1ccc(/C(O)=C2/C(=O)C(=O)N(Cc3cccnc3)C2c2ccc(N(C)C)cc2)c(C)c1 (stereo unspecified) | ? | 14% | 12% | -2.8% | -18% | 2% | 15% | -1%
Cc1oc2ccc(O)c(CN3CCCC(C)C3)c2c1C(=O)Nc1ccccc1 (stereo unspecified) | -29%[46.1 µM] | 0% | -9% | -4.2% | / | / | / | ?
CN(CC(=O)NNC(=O)Cc1ccccc1F)S(=O)(=O)c1ccc(Cl)cc1 | -12% | -24% | / | / | / | 0% | -8% | -15%
CC(=O)N1CCCc2cc(S(=O)(=O)N(C)CCC#N)ccc21 | -3% | 0% | -2% | 3.8% | 5% | -4% | -8% | 7%[46.1 µM]
CC1CC2C(C(O)CC3(C)C(O)CCC23)C2(C)CCC(=O)C=C12 (stereo unspecified) | -6%[46.1 µM] | -6% | / | / | / | / | -10% | 5%[46.1 µM]
CC(C)CC(=O)N1CCN(Cc2ccccc2Cl)CC1 | / | -8% | / | / | 8% | 7% | 0% | /
COC(=O)c1c(-c2ccccc2)noc1-c1ccccc1 | -3% | 37%[activator] | / | / | / | / | 10% | 10%[46.1 µM]
O=C(CSc1nncn1-c1cccnc1)Nc1cccc([N+](=O)[O-])c1 | / | 13% | / | / | -9% | 0% | 0% | ?
CCN(CC)CCNC(=O)c1ccc(NC(=O)c2c(C)nn(-c3ccc(F)cc3)c2Cl)cc1 | -2%[46.1 µM] | 3% | / | / | -10% | 0% | -15% | ?
COc1ccc2nc(/N=C\N(C)C)sc2c1 | 3% | 53%[activator] | 2% | 1.3% | -4% | -3% | -8% | -1%
COc1ccc(CCN(C)C(=O)Cc2ccc(-c3ccccc3)cc2)cc1OC | ? | ? | / | / | -16% | -4% | 7% | ?
O=C1/C(=C\c2ccc(Cl)c(Cl)c2)N2CCC1CC2 | -16% | -16% | / | / | -71% | -1% | ? | 0%[46.1 µM]
CCOc1ccc(C(=O)C(CN2CCOCC2)c2ccccc2)cc1 (stereo unspecified) | 26µM* | ? | -5% | -0.3% | -63% | -115% | -2% | 6.5µM*
